MgrA DNA FP = S. aureus MgrA-DNA binding modulation | fluorescence polarization | inhibition, %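 (about 10 µg/mL by stock and volumes)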 | actives 0.13% (n = 84,000) | AID 602314;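 active = above 50% in either of two replicates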;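 also: 0% = protein plus DNA without compound and 100% = DNA alone without protein; higher means less MgrA bound to DNA so lower polarization; one replicate is shown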
S aureus helic = blocks Staphylococcus aureus DNA helicase; actives 0.05% (n = 120,000); purified S. aureus helicase, fluorescence unwinding assay; about half of the hits fall short of the stated cut; AID 485395; inhibition, %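 (tested at about 80 µM)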;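 active = both duplicates at 50% or more, or one of them with a favoured structure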;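 also: 0% = mean of negative control wells and 100% = mean of positive control wells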
* hit, by the source's call; . = no result given; & = joins results of further samples. A portion of the library. The share of hits here may be higher or lower than overall.

Start of the data: the first 2 entries, ahead of the listing:
Values run as follows: MgrA DNA FP, S aureus helic
COc1ccccc1NC(=O)C1=C(C)NC2=C(C(=O)CCC2)C1c1cc2c(cc1Br)OCO2 (configuration not stated)
    -2.0, 5.0
O=C1CSC(CC(=O)Nc2ccccc2)=N1
    ., 10.0

Main list, from the first entry:
Values run as follows: MgrA DNA FP, S aureus helic
COc1ccccc1NC(=O)C1=C(C)NC2=C(C(=O)CCC2)C1c1cc2c(cc1Br)OCO2 (configuration not stated)
    -2.0, 5.0
O=C1CSC(CC(=O)Nc2ccccc2)=N1
    ., 10.0
CCN1CCN(CCCNC(=O)c2cnn(-c3ccc(C)cc3C)c2C2CCNCC2)CC1
    ., 12.0
COc1cccc(-c2nc(CS(=O)(=O)CC(=O)NC3CCCC(C)C3C)c(C)o2)c1 (configuration not stated)
    4.8, 12.0
COC(=O)C(C(=O)Nc1cc(C)on1)C1CCCC1 (configuration not stated)
    ., 7.0
NNC(=O)c1csc(CS(=O)(=O)Cc2ccco2)n1
    -1.6, .
CC1(C)CC(=O)C2=C(C1)N(c1ccc(F)cc1)C(=O)C2(O)C(F)(F)F (configuration not stated)
    ., 8.0
N#C/C(=C\C=C\c1ccco1)C(N)=S
    99.9*, 10.0
CC(C)N(C(=O)CSc1nc(O)cc(=O)[nH]1)C(C)C
    ., -10.0
CNC(=O)c1sc(=S)n(-c2ccccc2)c1N
    0.8, -13.0
N#Cc1c2c(c(-c3ccco3)[nH]c1=O)CCCC2
    6.6, 8.0
CSc1sc(C(=O)N2CCOCC2)c2c1S(=O)(=O)N(C)c1ccccc1-2
    -2.2, .
CCCCc1ccc2nc(NC(=O)C3=NN(C)C(=O)CC3)sc2c1
    ., -1.0
COc1ccc(CNC(=O)C2CC(=O)N(C3CCCC3)C2)cc1 (configuration not stated)
    -1.1, 0.0
CCCC(=O)Nc1nonc1-c1ccccc1
    ., -26.0
c1ccc2c(c1)ncn1c3ccccc3nc21
    ., 15.0
O=C(O)C1Cc2c([nH]c3ccccc23)C(c2ccc(Cl)cc2Cl)N1 (configuration not stated)
    1.1, .
CCOC(=O)c1c(N2C(=O)C=CC2=O)sc2c1CCC(C)C2 (configuration not stated)
    ., -17.0
FC(F)(F)c1cc(-c2cccs2)no1
    ., 9.0
COc1ccc(/C=C/C(=O)CC(=O)/C=C/c2cccc(O)c2OC)cc1O
    1.9, .
N#CCn1c(C(F)(F)F)nc2ccccc21
    2.2, .
O=S1(=O)CC2N=C(Nc3ccc(Cl)c(Cl)c3)SC2C1 (configuration not stated)
    ., -10.0
CC(=O)Nc1cccc(NC(=O)C2CCCN2C(=O)Nc2ccccc2Cl)c1 (configuration not stated)
    4.2, 17.0
COC(=O)c1ccc(-n2nnnc2SCC(=O)c2ccc(O)c(O)c2)cc1
    ., 17.0
CCC(=O)N1c2ccccc2NC2=C(C(=O)CC(C)(C)C2)C1CC1CC=C(C)C1(C)C (configuration not stated)
    -1.8, 11.0
O=C(CSc1n[nH]c(-c2ccccc2)n1)c1cccs1
    -0.5, 8.0
N#CC1=C(SCC(=O)Nc2ccccc2)NC(=O)CC1c1ccc(Br)cc1 (configuration not stated)
    1.4, .
CSc1ncc(C(=O)NC2CC2)c(-c2ccccc2)n1
    ., -8.0
O=C(Nc1ccc(I)cc1)C1(S(=O)(=O)c2ccc(Cl)cc2)CC1
    -0.3, -22.0
Nc1nc(N)nc(Cn2c(-c3nonc3N)nc3ccccc32)n1
    3.6, .

Quoted at random: 3 compounds from above.
Values run as follows: MgrA DNA FP, S aureus helic
N#CC1=C(SCC(=O)Nc2ccccc2)NC(=O)CC1c1ccc(Br)cc1 (configuration not stated)
    1.4, .
O=C(O)C1Cc2c([nH]c3ccccc23)C(c2ccc(Cl)cc2Cl)N1 (configuration not stated)
    1.1, .
N#CCn1c(C(F)(F)F)nc2ccccc21
    2.2, .

Continuation.
Values run as follows: MgrA DNA FP, S aureus helic
Cc1nc2sc(C(=O)N(C3=NC(C)CS3)c3ccc(Cl)cc3)c(C)c2c(=O)[nH]1 (configuration not stated)
    ., 2.0
Cc1cccc(Nc2ncnc3c2cnn3-c2ccccc2)c1
    ., -1.0
NC(=O)COC(=O)c1cccc(I)c1
    1.0, 12.0
Nc1nc(N)c2nc(-c3ccccc3)c(N)nc2n1
    0.9, .
CC(Oc1ccccc1)C(=O)Nc1nnc(C2CCCCC2)s1 (configuration not stated)
    -3.2, 6.0
O=C(Nc1ccc(Cl)cc1)C1C2CCCCC21 (configuration not stated)
    2.0, -6.0
O=c1/c(=C/c2ccc(-c3cccc(C(F)(F)F)c3)o2)sc2nc(-c3ccncc3)nn12
    ., 9.0
CCC(Sc1nc2ccc(Br)cc2c2nc3ccccc3n12)C(=O)NCC1CCCO1 (configuration not stated)
    1.2, 4.0
Cc1ccnc(NS(=O)(=O)c2ccc(NC(=O)c3ccccc3Br)cc2)n1
    3.1, 7.0
O=C(Nc1cccnc1)c1cc2nc(C3CC3)cc(C(F)(F)F)n2n1
    -1.3, 3.0
Cc1ccc(S(=O)(=O)N(CCO)CCO)cc1
    ., -15.0
Cc1oc(S(=O)(=O)N2CCOCC2)cc1-c1nc(-c2ccc(C(C)(C)C)cc2)no1
    1.0, .
O=c1cc(-c2ccccc2)oc2cc(O)c(O)c(O)c12
    3.2, .
COc1cccc(NC(=O)C2CC3CCCN3C23C(=O)N(C)c2ccccc23)c1 (configuration not stated)
    ., 9.0
CCOC(=O)c1cc(-c2cccs2)on1
    1.6, .
COC(=O)c1cscc1N
    -2.6&2.8, .
Nc1cc(=O)nc(SCC(=O)N2CCCc3ccccc32)n1-c1ccccc1
    ., 7.0
Nc1ccc(S(=O)(=O)Nc2nc(-c3ccccc3)cc(-c3ccccc3)n2)cc1
    -1.6, .
CCC1CCCCN1CC(=O)c1ccc(Cl)s1 (configuration not stated)
    ., 14.0
CC1=C(C)CC(C(=O)NCc2ccc3c(c2)OCO3)C(C(=O)O)C1 (configuration not stated)
    -1.5, 8.0
NC(=O)CSc1sc(=S)sc1SCC(N)=O
    ., 7.0
CC1(c2ccccc2)CC(C)(C)N(C(=O)CSc2ncn[nH]2)c2ccccc21 (configuration not stated)
    -7.9, 6.0
O=[N+]([O-])c1ccc(Cl)c(N=Cc2nc(-c3ccc(Br)cc3)oc2O)c1
    -1.4, .
CN(C(=O)[C@H]1[C@@H]2C[C@@H]3[C@H]1C(=O)O[C@@H]3C2)c1ccccc1Cl
    -0.5, 7.0
CCc1ccc(-n2nnc(C(=O)Nc3ccccc3)c2C)cc1
    ., 4.0
CC(=O)Nc1ccc(S(=O)(=O)NCCCN2CCN(Cc3ccccc3)CC2)cc1Cl
    3.6, .
Cc1ccc(S(=O)(=O)N2CCCC2C(N)=O)cc1 (configuration not stated)
    0.2, 9.0
Cc1cccc(-n2c(=O)c3c4c(sc3n3c(=S)[nH]nc23)CCCC4)c1
    4.2, 7.0
O=C(Nc1nc2c(s1)C(=O)NCCC2)c1ccccc1
    ., 7.0
O=C(COC(=O)C1(c2ccccc2)CC1)Nc1nnc(-c2ccccc2)o1
    ., 13.0
CC1CCCN(C(=O)C2c3ccccc3C(=O)N(C)C2c2c[nH]c3ccccc23)C1 (configuration not stated)
    0.0, 11.0
Cc1ccc(S(=O)(=O)NCC(=O)OCc2cc(=O)n3cc(C)ccc3n2)cc1
    ., -7.0
CC(=O)NC1(c2ccccc2F)CCN(CC(=O)N2CCN(C(=O)c3ccco3)CC2)CC1
    -3.3, 11.0
COC(=O)c1cccc(S(=O)(=O)N(C)C)c1
    1.6, 18.0
CCc1cccc(OCC(=O)Nc2ccc(S(=O)(=O)Nc3nccs3)cc2)c1
    3.0, 4.0
C=CCN1C(=O)C(C#N)=C(C)/C(=C\c2ccc(-c3cccc(C(=O)O)c3)o2)C1=O
    ., -1.0
OCCNc1ccc(Cl)nn1
    0.8, .
C/C(=N\NC(=O)Cc1cccs1)c1ccc(S(=O)(=O)N(C)C)cc1
    ., -10.0
O=C(CCCN1C(=O)CSc2ncccc21)N1CCCCC1
    -1.2, -2.0
C=CCn1c(SCC(=O)N(CC)CC)nc(O)cc1=O
    ., 5.0
O=C(NCCCN1CCOCC1)Nc1noc2c1COc1ccccc1-2
    ., -9.0
NC(=O)c1ccccc1NC(=O)c1ccccc1
    ., 0.0
Cc1ccc2nc(C)cc(NC3CCCCC3)c2c1
    6.6, 11.0
N#Cc1ccccc1NC(=O)COC(=O)c1ccco1
    ., 2.0
OCCNC(=S)NCc1ccccc1
    -2.0, .

Three compounds out of the list, sorted by heavy-atom count, highest first:
Values run as follows: MgrA DNA FP, S aureus helic
CC1CCCN(C(=O)C2c3ccccc3C(=O)N(C)C2c2c[nH]c3ccccc23)C1 (configuration not stated)
    0.0, 11.0
C=CCN1C(=O)C(C#N)=C(C)/C(=C\c2ccc(-c3cccc(C(=O)O)c3)o2)C1=O
    ., -1.0
COC(=O)c1cccc(S(=O)(=O)N(C)C)c1
    1.6, 18.0

(continued)
Values run as follows: MgrA DNA FP, S aureus helic
COc1ccc(CN(C2CCCC2)S(=O)(=O)c2ccc(-n3cnnn3)cc2)cc1
    0.9, 2.0
Cc1nc2c3ccccc3n3c(CCCC(=O)NCC4CCCO4)nnc3n2n1 (configuration not stated)
    ., 4.0
CN(C)c1ccc(C2C3=C(CC(C)(C)CC3=O)Nc3ccccc3N2C(=O)c2ccc(F)cc2)cc1 (configuration not stated)
    -8.6, .
COc1ccc(OC)c(-n2c(=S)[nH]c3cc(C(=O)NCc4ccc(F)cc4)ccc3c2=O)c1
    1.1, 11.0
CCCNC(=O)c1ccc2ccccc2c1
    -0.2, -2.0
COc1ccc(C2(O)CCN(CC(=O)NC(C)(C)C)CC2)c(OC)c1
    -0.9, 7.0
Cc1csc2ncnc(N3CCN(C(=O)Nc4ccc(OC(F)(F)F)cc4)CC3)c12
    -0.9, .
O=C(O)c1cc(Cl)ccc1OCc1ccccc1
    -2.5, 10.0
COc1ccc(CCN2C(=O)C3C4C=CC(O4)C3C2=O)cc1OC (configuration not stated)
    1.4, 15.0
O=C(Cn1c(=O)oc2ccccc21)NCCc1ccccc1
    -0.1, -16.0
CC(=O)NC(CC(C)C)C(=O)O (configuration not stated)
    ., 6.0
CC1=C(C#N)C(c2ccccc2)C2=C(N1)c1ccccc1C2=O (configuration not stated)
    -2.5, .
O=C(CCN1C(=O)C2CC=CCC2C1=O)N1CCN(c2ccccn2)CC1 (configuration not stated)
    0.6, 12.0
Cc1cc(NC(=O)c2ccccc2OCc2ccccc2)no1
    -0.4, -21.0
Cc1[nH]c2ccccc2c1C(c1ccccc1)N1CCN(C)CC1 (configuration not stated)
    4.0, 5.0
N#Cc1ccccc1OCC(=O)OCc1ccccc1F
    1.6, 11.0
COc1ccc(CNC(=O)C2CCCN(c3ncnc4onc(-c5ccc(F)cc5)c34)C2)cc1 (configuration not stated)
    ., -27.0
Cn1c(=O)c2c(nc(SCc3ccc(F)cc3)n2Cc2ccccc2)n(C)c1=O
    ., 8.0
COC(=O)C1C2C=CC3(CN(C4CCCCC4)C(=O)C13)O2 (configuration not stated)
    ., 2.0
Cc1ccc(C(=O)OCC(=O)c2ccccc2)cc1
    -2.8, .
COc1ccc(C2OC(c3ccc(S(=O)(=O)N4CCCCC4)cc3)=NN2C(C)=O)cc1 (configuration not stated)
    -0.7, 10.0
CC(C)Sc1nc2cc(S(=O)(=O)N3CCCCC3)ccc2o1
    ., 20.0
COc1cc(C2CC(C(F)(F)F)n3ncc(C(=O)N4CCN(Cc5ccccc5)CC4)c3N2)cc(OC)c1OC (configuration not stated)
    -0.3, .
CC(C)=NNC1=NC(C)(C)Cc2ccccc21
    ., 0.0
CCOC(=O)c1c(N2C(=O)C3ON(c4ccccc4C)C(c4ccccc4)C3C2=O)sc(C)c1C (configuration not stated)
    1.2, 10.0
O=C1c2ccccc2C(=O)N1CCCC(=O)N1c2ccccc2Sc2ccccc21
    ., 4.0
COc1ccccc1CNS(=O)(=O)Cc1ccccc1
    -0.7, -1.0
CCOC(=O)C1=C(C)Nc2ccccc2S1
    2.2, .
CCOC(=O)c1cc(-c2ccc(OC)cc2)n(CCC(=O)N2CCc3ccccc32)c1C
    -0.3, 6.0
O=C1CCN(C(=O)c2ccc(Cl)cc2)c2cc3ccccc3cc21
    ., 7.0
Cc1ccc(N(C(=O)c2ccc(C(C)(C)C)cc2)C2C=CS(=O)(=O)C2)cc1 (configuration not stated)
    ., -22.0
O=C(Nc1ccc2c(c1)OCO2)c1cc(S(=O)(=O)N2CCN(c3ccccc3)CC2)ccc1Cl
    ., 6.0
Brc1cnc2nc(-c3ccccc3)[nH]c2c1
    ., 31.0
CCOC(=O)c1cccc(NC(=O)CNS(=O)(=O)c2cccs2)c1
    ., 2.0
O=C1CCCC/C1=C/Nc1ccc(N/C=C2/CCCCC2=O)cc1
    1.3, -7.0
O=C(Nc1ccc(C(F)(F)F)cc1)c1cnc(N2CCN(c3ccccn3)CC2)c2ccccc12
    1.2, 7.0
O=C1CC(N2CCCc3ccccc32)C(=O)N1c1ccc(Br)cc1F (configuration not stated)
    1.4, 2.0
O=C(NCc1ccco1)C1=NN(c2ccccc2)C(=O)CC1
    ., -3.0
CCC1CSC(Nc2cccc(C(F)(F)F)c2)=N1 (configuration not stated)
    -0.8, .
COC(=O)c1cc(N)cc(C(=O)OC)c1
    ., 9.0
CCN(CC)C(=O)Cn1cc(C(=O)C2CC2)c2ccccc21
    ., 9.0
Cc1cnc(NC(=O)[C@@H](NC(=O)c2ccccc2F)C(C)C)s1
    ., 4.0

Source: PubChem
